Screening results from PubChem BioAssay.
gsp antag – antagonists of gsp mutant (McCune-Albright syndrome); gsp-mutant cells, cAMP HTRF, 30 min; control for the full effect not named in the record; Potency, µM (highest dose often 76.9 µM), without a hit: at the top dose activity change, negative = inhibition, most hits filed as inhibitors; actives 0.4% (n = 340,000); AID 624288; active = falling curve of any shape with a large fitted effect; inconclusive = falling curve, mostly with a smaller effect; inactive = flat or rising curve; cell line not stated here;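 further: intracellular cAMP measured with PDE inhibitor Ro 20-1724 present during compound exposure; potency means the concentration at half of the fitted maximal effect; on the % scale 0 is the no-effect control and ±100 the full control effect; nearly all actives have a fitted effect of over 65% in size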
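Measurement of cellular cAMP by homogeneous time-resolved fluorescence following a 30 min compound exposure at 37C. The PDE inhibitor […] was present throughout; the assay buffer was DPBS with 0.05% BSA and 0.005% Tween 20.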
D2 potentiator – potentiates the human D2 dopamine receptor allosterically | DiscoveRx D2 beta-arrestin cells, luminescence, 90 min; 100% = 57 uM dopamine signal | potentiation, % (concentration not given with the values) | actives 0.23% (n = 360,000) | AID 624464; active = potentiation of 50% or more; inconclusive = 30% to 50%; inactive = 30% or less;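 further: compound concentration not given in the record; tested on top of an EC20 dose of dopamine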
Target sequence (P14416 whole entry, looked up): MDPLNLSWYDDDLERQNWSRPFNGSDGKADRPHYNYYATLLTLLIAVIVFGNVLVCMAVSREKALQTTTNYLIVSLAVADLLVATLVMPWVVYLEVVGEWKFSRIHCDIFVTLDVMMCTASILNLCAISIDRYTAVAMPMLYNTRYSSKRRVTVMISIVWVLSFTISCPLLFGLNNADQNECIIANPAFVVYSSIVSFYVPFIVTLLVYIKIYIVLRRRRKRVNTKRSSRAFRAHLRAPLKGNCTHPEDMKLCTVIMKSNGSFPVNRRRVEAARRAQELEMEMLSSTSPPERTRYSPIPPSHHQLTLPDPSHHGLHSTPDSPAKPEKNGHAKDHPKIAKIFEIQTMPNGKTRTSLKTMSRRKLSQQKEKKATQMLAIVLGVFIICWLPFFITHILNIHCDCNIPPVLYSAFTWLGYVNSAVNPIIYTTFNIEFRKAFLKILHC
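PathHunter D2 cells, attached overnight at 37 deg C, received compound in DMSO plus dopamine at EC20 (50 nM final) for 90 min at 37 deg C. Beta-arrestin recruitment was read as luminescence after 1 h with detection reagent at ambient temperature.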
CtBP-E1A inh – inhibitors of CtBP/E1A interaction; AlphaScreen GST-E1A/His-CtBP binding, 1536-well; hits give low values; control for the full effect not named in the record; activity change, % (concentration not given with the values); actives 0.49% (n = 340,000); AID 651724; in the data active means activity change below about -65%; inconclusive means about -30% to -65%; inactive means above about -30%; further: on the % scale 0 is the no-effect control and ±100 the full control effect
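AlphaScreen with 125 nM GST-E1A and 125 nM His-CtBP (5X stocks) in Tris pH 8.0, 300 mM NaCl, BSA, Tween 20, TCEP. Compounds preincubated 2 h at 37 deg C, then glutathione donor/nickel acceptor beads added for 1 h at 37 deg C in dark.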
gsp ag – activates gsp, the McCune-Albright syndrome mutation; gsp mutant cells, cAMP HTRF, 30 min; control for the full effect not named in the record; Potency, µM (doses to about 76.9 µM), without a hit: at the top dose activation (cAMP increase), actives largely listed as activators; actives 0.13% (n = 340,000); active = well fitted activation curve with a large enough effect; inconclusive = small, poorly fitted or top-dose-only effect, or another doubt; inactive = no such curve, though single readings can be large or run the other way; cell line not stated here;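 further: phosphodiesterase inhibitor Ro 20-1724 added with compounds to block cAMP breakdown; potency means the concentration at half of the fitted maximal effect; nearly all actives have a fitted effect of over 60% in size; about a fifth of the inactives were tested at one dose only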
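Cells stably selected in G418 were plated at 2000/well, grown 16-24 hr, then given compounds in DMSO with the PDE inhibitor […] (300 uM solution added) for 30 min at 37C; cAMP was read by HTRF.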
D2 agonist – activates the human D2 dopamine receptor; P14416; DiscoveRx PathHunter D2 beta-arrestin, luminescence, 90 min; 100% = 57 uM dopamine signal; activation, % (concentration not given with the values); actives 0.084% (n = 360,000); AID 624465; in the data active = activation above about 40%; inconclusive = about 15% to 40%; inactive = below about 15%; further: compound concentration not given in the record; the text of the record calls up to 30% inactive
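DiscoveRx PathHunter D2 beta-arrestin cells (2,100/well) attached overnight, then compound-stimulated 90 min at 37 C in HBSS/10 mM HEPES/0.1% Tween-20 buffer; beta-galactosidase complementation read by luminescence after 1 h at ambient temperature. Dopamine 57 uM final (EC100) as control.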
Six1-Eya2 blk – blocks human Six1 binding to Eya2; actives 0.56% (n = 360,000); AID 651725; AlphaScreen GST-Six1/His-Eya2 binding, biochemical; hits give low values; control for the full effect not named in the record; activity change, % (test concentration not listed); in the data active = activity change below about -65%; inconclusive = about -30% to -65%; inactive = above about -30%; further: on the % scale 0 is the no-effect control and ±100 the full control effect; compound concentration not given in the record
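Six1/Eya2 binding was read as AlphaScreen signal after compounds were pinned into GST-Six1 plus His-tagged Eya2 (5X stock 250/500 nM) in pH 8.0 Tris/NaCl/TCEP buffer, beads added, then incubated 1 h, 37 C, dark.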
Starred values were filed as active, the others as inactive; ? = inconclusive; / = no result given; [ ] = remark or other dose. Rows were taken by chance. Share with any hit: about 1.4%.

gsp antag	D2 potentiator	CtBP-E1A inh	gsp ag	D2 agonist	Six1-Eya2 blk	molecule
1%	8	-3	4%[15.4 µM]	-19	5	O=C1CCN(c2ccc([N+](=O)[O-])cc2F)CC1
13%	-3	8	?	4.7	4	COC(=O)c1sc(S(=O)(=O)NC(Cc2ccccc2)C(=O)O)c(C(=O)OC)c1C (stereo not drawn)
-3%	6	-4	/	-0.7	-5	O=C(/C=C/c1cccs1)N1CCC2(CC1)Oc1ccc(Cl)cc1C(=O)C21CC(c2ccccc2)=NO1 (stereo not drawn)
-3%	-17	43	0%	-3.5	23	CCn1c(=N)n(CC(=O)c2ccc(OC)c(OC)c2)c2ccccc21
?	0	-3	-12%	1.6	-7	COc1ccc(-c2nc(SCC(=O)Nc3nccs3)c(-c3ccc(Cl)cc3)[nH]2)cc1
-11%	-6	-14	3%	6.9	-10	O=C(NNC(=O)c1c(O)c2ccccc2[nH]c1=O)c1ccccc1
6%	2	11	20%[15.4 µM]	-1.1	0	Cc1cc(C)n2nc(C(=O)NNC(=O)c3ccccc3)nc2n1
7%	0	17	16%	7.3	19	O=C(COC(=O)CCC1CCCC1)Nc1ccc(F)cc1Cl
4%	-6	0	-53%[inhibitor]	-3.2	6	CCN1CCN(CC(=O)Nc2ccc3c(c2)OCCO3)C(=O)C1=O
8%	-7	/	17%	-3.2	12	CSCCC(NC(=O)c1ccccc1Cl)C(=O)NCCc1ccccn1 (stereo not drawn)
3%	-4	0	/	-5.8	5	CO[C@@]1(NC(=O)C2SC(=C(C(N)=O)C(=O)O)S2)C(=O)N2C(C(=O)O)=C(CSc3nnnn3C)CS[C@@H]21 (stereo partly drawn)
-19%	0	-3	12%[15.4 µM]	2.8	-8	COCC(C)NC(=O)c1ccc2nc(-c3ccccc3)c(-c3ccccc3)nc2c1 (stereo not drawn)
16%	-12	-15	25%	-1.6	0	O=C(Cc1ccccc1)CC1(O)C(=O)Nc2ccccc21 (stereo not drawn)
-1%	3	0	-4%[15.4 µM]	-1.7	-13	CCNC(=S)N1CCN(CC)CC1
-18%	9	-12	-37%[inhibitor]	7.1	-12	Cc1cc(O)c(N=Cc2cc3c(cc2[N+](=O)[O-])OCO3)cc1C
-8%	-2	11	?	-2.7	3	Cc1cccc(C)c1NC(=O)CN(C)C(=O)c1ccccc1C(=O)N(C)Cc1ccccc1
-1%	-8	0	8%	1.4	0	COc1ccc(CN2[C@@H](CC(C)=O)c3ccc(/C=C/C(C)=O)cc3S2(=O)=O)cc1
-23%	-8	-14	5%[15.4 µM]	-4.1	-20	O=[N+]([O-])c1cc(/C=N/O)ccc1N1CCCC1
7%	4	8	-83%[inhibitor]	-2.2	8	CC(=O)NC(Cc1ccc(F)cc1)C(=O)O (stereo not drawn)
1%	-12	0	12%	-2.2	0	O=C(NCC(=O)N(c1cnc2ccccc2c1)C(C(=O)NC1CCCC1)c1ccncc1)c1ccco1 (stereo not drawn)
-6%	3	13	/	-3.5	16	COc1cccc(-c2sc3ccc(OC)cc3c2-c2cc(F)cc(OC)c2)c1
-4%	-12	8	-6%[15.4 µM]	-2.7	2	Cc1ccsc1CN(C)CC(=O)Nc1ccccc1C(=O)NC1CC1
2%	-16	-10	/	-2.9	-12	Oc1ccc(C[C@@H]2CNCCN2CCC23CC4CC(CC(C4)C2)C3)cc1
/	-9	-10	/	-1.0	1	CC(C)C[C@H]1CNC(=S)N1C[C@H]1CCCN1C[C@H](Cc1ccc(O)cc1)N1C[C@H](Cc2ccccc2)N(CC2CCCCC2)C1=S
-10%	3	-3	-21%	-0.8	-2	COc1ccc(F)c(C2C(C#N)=C(N)Oc3n[nH]c(C(C)(C)C)c32)c1 (stereo not drawn)
/	9	1	0%	-7.0	-1	COCC#Cc1ccc2c(c1)O[C@@H](CN(C)C(=O)Nc1ccc(OC)cc1)[C@H](C)CN([C@H](C)CO)S2(=O)=O
-11%	-11	-4	9%[15.4 µM]	0.8	-7	O=C(NNC(=O)c1ccc(Cl)c([N+](=O)[O-])c1)c1ccncc1
6%	2	-3	8%	-0.2	-1	NS(=O)(=O)c1ccc(CCNC(=O)Cc2ccc(S(=O)(=O)N3CCOCC3)s2)cc1
?	-2	-1	1%	0.8	-7	COc1ccc(-n2c(SCC(=O)Nc3ccccc3C)nc(O)c(Cc3ccccc3)c2=O)cc1
1%	-9	/	-20%	-1.4	-11	COc1ccc2cc3c(N)nn(C(=O)c4ccc(F)cc4)c3nc2c1
13%	-11	6	?	-6.1	-1	CC(C)=Nc1ccccc1C1COC(=O)C1=N (stereo not drawn)
-3%	-12	-3	/	0.0	-10	COc1ccc(-c2ccc3c(c2)S(=O)(=O)c2cccc(C(=O)N4CCN(c5ccc(Cl)cn5)CC4)c2C3=O)cc1OC
13%	5	2	-10%	0.0	4	O=C(NC(=S)N1CCOCC1)c1cc2ccccc2o1
/	-13	-21	36%	-2.4	5	O=C(Cc1ccc(Cl)cc1)NCC(=O)N1CCC2(CC1)NCCc1[nH]cnc12
4%	-5	0	7%	-2.5	2	O=C(CN1C(=O)COc2ccc(Cl)cc21)NC1CC1
-3%	-22	-6	-1%	0.6	-6	Cc1ccc2[nH]c(-c3ccccc3)c(CN3CCN(C)CC3)c(=O)c2c1
10%	2	0	/	-2.7	3	O=C(Cc1ccc(NC(=O)C2CCN(C(=O)C3CCCC3)CC2)cc1)Nc1ccc(C(=O)N2CCOCC2)cc1
2%	-4	-5	/	-2.3	-5	CSC[C@H](NC(=O)Cc1c(C)c2cc3c(C)c(C)oc3cc2oc1=O)C(=O)N[C@@H](Cc1ccccc1)C(=O)O
-15%	-2	-11	-10%[15.4 µM]	-3.4	-9	O=C(CCS(=O)(=O)c1ccc(Cl)cc1)Nc1nnc(-c2cccs2)o1
3%	0	-4	0%[15.4 µM]	-2.8	4	CC(=O)Nc1ccc(S(=O)(=O)Nc2cc(S(=O)(=O)N3CCCCC3)ccc2O)cc1
-1%	4	-24	/	-5.1	?	CN(C)c1ccc(O)c2c1CC1CC3[C@@H](N(C)C)C(=O)C(C(N)=O)=C(O)[C@]3(O)C(=O)C1=C2O (stereo partly drawn)
1%	-5	0	-4%[15.4 µM]	-1.3	-9	CCC(=O)N1CCN(c2nnc(-c3ccccc3)c3ccccc23)CC1
1%	-9	0	-2%	-6.4	4	COc1ccc(CCn2c(=O)[nH]c3cc(C(=O)NCCCN4CCOCC4)ccc3c2=O)cc1OC
10%	-3	0	/	-1.8	-3	CC(C)(C)OC(=O)NCCCCc1cn(CC(=O)N2CCN(C(=O)OC(C)(C)C)CC2)nn1
-3%	0	3	2%	11	9	CC(C)NC(=O)Nc1n[nH]c(Nc2ccc(Cl)cc2)n1
5%	-1	-11	2%[15.4 µM]	-1.8	-5	O=C(Cc1cccc2ccccc12)Nc1cccnc1
-17%	-2	28	18%	-2.6	13	COc1ccccc1NC(=O)c1csc2c1CCC(C)C2 (stereo not drawn)
-3%	-11	-1	-34%	1.2	-20	O=C(NCc1ccc(F)cc1)C(=O)NCC1OCCCN1S(=O)(=O)c1cccs1 (stereo not drawn)

Structures listed so far that contain a furan ring, fused or not:
gsp antag	D2 potentiator	CtBP-E1A inh	gsp ag	D2 agonist	Six1-Eya2 blk	molecule
1%	-12	0	12%	-2.2	0	O=C(NCC(=O)N(c1cnc2ccccc2c1)C(C(=O)NC1CCCC1)c1ccncc1)c1ccco1 (stereo not drawn)
13%	5	2	-10%	0.0	4	O=C(NC(=S)N1CCOCC1)c1cc2ccccc2o1
2%	-4	-5	/	-2.3	-5	CSC[C@H](NC(=O)Cc1c(C)c2cc3c(C)c(C)oc3cc2oc1=O)C(=O)N[C@@H](Cc1ccccc1)C(=O)O

New compounds follow
gsp antag	D2 potentiator	CtBP-E1A inh	gsp ag	D2 agonist	Six1-Eya2 blk	molecule
12%	-9	2	9%	-2.5	3	O=C(CSc1nc2ncccc2[nH]1)NCc1ccccc1
-7%	-6	-5	7%[15.4 µM]	0.0	-6	COC(=O)c1cccc(-c2ccc(/C=N/N3C(=O)C4C5C=CC(C6CC56)C4C3=O)o2)c1 (stereo not drawn)
-9%	11	-25	5%	6.9	-26	Cc1ccc(-c2csc(N/N=C/c3ccco3)n2)cc1
11%	-6	-1	3%[15.4 µM]	-5.8	3	O=c1c2ccccc2nnn1CSc1nc2ccccc2[nH]1
11%	-6	2	28%	-2.8	7	CCOC(=O)c1cc(NC(=O)N(C)C2CCCCC2)c(C)nc1C
-12%	-5	10	3%	4.5	-2	COc1ccc(-c2nnc(-c3ccc4ccccc4c3)o2)cc1
/	-6	-9	/	-3.6	8	COc1ccc(CNC(=O)/C=C/[C@H]2O[C@@H](n3cnc4c(NC(=O)c5ccccc5)ncnc43)[C@H](O)[C@@H]2O)cc1
9%	8	1	?	-0.3	0	Cc1ccc(S(=O)(=O)N(C)CC(=O)NNC(=O)Cc2cccc(F)c2)cc1
14%	-2	7	-1%	6.1	3	COc1cc(/C=N/Nc2ccc(F)cc2F)cc(OC)c1OC
-2%	-2	0	0%	-0.5	3	CSc1c(-c2ccccc2)nc2ccc(Cl)cc2c1C(=O)O
/	-19	-8	23%[15.4 µM]	1.4	0	Cc1c(NC(=O)COC(=O)C2(c3ccc(F)cc3)CCCC2)c(=O)n(-c2ccccc2)n1C
-5%	-2	6	-21%	-0.3	10	CC(=O)c1cccc(N(C(=O)Cn2nnc3ccccc32)C(C(=O)NC2CCCCC2)c2cn(C)nc2C)c1 (stereo not drawn)
4%	-4	10	0%[15.4 µM]	1.7	11	Cc1ccc(OCC(=O)Oc2ccc(C(C)C)cc2)cc1
-5%	-6	-7	-9%	-1.8	-5	CC(C)CCN(C(=O)c1ccccn1)c1c(N)n(Cc2ccccc2)c(=O)[nH]c1=O
-9%	7	-8	2%	2.0	1	COCCCn1c(SCC(=O)Nc2sc3c(c2C#N)CCCC3)nnc1-c1ccncc1
10%	0	6	-1%[15.4 µM]	1.0	-2	COc1ccccc1Cn1c(C)nc2ccccc21
-4%	-4	-25	18%	1.2	0	COC(=O)c1cccc(NC(=O)c2ccc3c(c2)C(=O)N(C(C)(C)C)C3=O)c1
7%	-2	0	-28%	-4.0	-2	COC(=O)N1CCN(c2ccc(OC)cc2)CC1
22%	5	15	57%[15.4 µM]	2.3	-4	Cc1nnc2n(C)c(=O)c3c4c(sc3n12)COC(C)(C)C4
-2%	-10	8	32%	-3.9	3	COc1ccc(CC(CC(=O)O)C(=O)Nc2ccccc2)cc1 (stereo not drawn)
/	-10	-1	4%[15.4 µM]	-1.2	-2	Cc1nn2c3ccccc3n(CC(=O)c3cccs3)c2nc1=O
16%	-10	8	-2%	-6.8	-4	COc1ccc2c(c1)c1nnc(SCC(=O)Nc3ccccc3F)nc1n2C
1%	27	-5	1%[15.4 µM]	4.2	-9	O=C(Nc1ccc(F)c(Cl)c1)C1CC(=O)n2c(nc3ccccc32)N1 (stereo not drawn)
